eIF4H FP inh = inhibitors of RNA binding by human eIF4H. Q15056. eIF4H fluorescence polarization binding assay. inhibition, % at 35 µM. 290,000 compounds, 0.94% hits;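 active = 50% or more with normal probe brightness, or confirmed in later tests; about a fifth of its hits are not listed in these tables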;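 note: calls also rest on retests at 20 µM and on dose response follow-up; 0% = protein and probe with vehicle and 100% = probe without protein; strong numbers were not always called active; many hits fall short of the cut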
PABP FP inh = PABP-poly(A) binding inhibition; PABP-poly(A) RNA binding, fluorescence polarization; 290,000 compounds, 1% hits; P11940; inhibition, % at 35 µM; AID 2014;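 active = 50% or more with normal probe brightness, or confirmed in later tests; about a fifth of its hits are not listed in these tables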;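 note: calls also rest on retests at 20 µM and on dose response follow-up; controls were probe without protein and protein plus probe with vehicle; some compounds called inactive have numbers as strong as hits; many hits fall short of the cut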
Target sequence (P11940 whole entry, looked up): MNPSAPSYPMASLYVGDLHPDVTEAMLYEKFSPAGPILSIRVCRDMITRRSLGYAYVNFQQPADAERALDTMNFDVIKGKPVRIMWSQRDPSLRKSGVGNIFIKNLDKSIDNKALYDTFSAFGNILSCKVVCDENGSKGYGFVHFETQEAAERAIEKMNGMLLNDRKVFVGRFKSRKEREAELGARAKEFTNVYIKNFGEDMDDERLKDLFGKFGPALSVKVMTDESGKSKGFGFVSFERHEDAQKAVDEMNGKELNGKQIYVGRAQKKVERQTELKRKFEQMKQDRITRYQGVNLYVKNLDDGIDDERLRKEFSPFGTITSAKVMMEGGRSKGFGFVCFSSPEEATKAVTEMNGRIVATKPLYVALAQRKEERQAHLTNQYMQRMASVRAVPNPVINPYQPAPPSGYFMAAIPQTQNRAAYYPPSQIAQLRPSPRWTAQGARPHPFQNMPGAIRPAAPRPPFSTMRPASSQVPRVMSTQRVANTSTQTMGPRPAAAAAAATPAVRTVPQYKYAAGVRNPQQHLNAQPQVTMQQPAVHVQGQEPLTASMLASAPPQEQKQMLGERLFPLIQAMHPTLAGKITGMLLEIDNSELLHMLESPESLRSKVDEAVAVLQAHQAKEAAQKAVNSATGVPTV
MT1-MMP act inh = blocks activation of human MT1-MMP; P50281; HT1080 RFP-PRO-GFP cells, GFP/RFP ratio fluorescence, overnight; percent of plate control window, DMSO zero; GFP/RFP ratio change, % at 20 µM; 360,000 compounds, 0.061% hits;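 active = GFP/RFP ratio change of at least 30% with cell ATP level not reduced by more than half and red fluorescence within 50% of control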; note: strong numbers were not always called active
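Material – HT1080 RFP-PRO-GFP cells · Control set – DMSO wells and RFP-L50D-GFP cells · Incubation – overnight cell settling, then overnight compound exposure, 37 °C, 5% CO2 · Compound dosing – single-point 20 µM compound, 1% DMSO · Read-out – GFP/RFP fluorescence ratio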
CSC inhib = blocks cancer stem cells. 300,000 compounds, 1.1% hits. inhibition, % at 7.5 µM. cancer stem cell-like cells viability, luminescence;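 active = mean at 75% or more and at least half the replicates too; tested in HMLE shEcad cells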;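 note: 0% = median of negative and 100% = median of positive control wells; the first replicate is given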
UUG fidelity = alters start codon recognition fidelity in yeast | S. cerevisiae UUG-firefly luciferase reporter, luminescence/redox ratio | activity score, % at 18.7 µM | 350,000 compounds, 0.13% hits | AID 602363;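 active = replicate mean at a twofold rise or more, about +100% in these data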;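 note: firefly luciferase made from a UUG start codon reports start codon fidelity; reporter light over untreated wells divided by growth signal over untreated wells; some hits fall short of that in this replicate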
Rce1 inhib = inhibitors of yeast Ras-converting enzyme | 290,000 compounds, 0.27% hits | Q03530 | calls only | yeast membranes, quenched prenylated peptide cleavage fluorescence;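 active = fall in fluorescence gain of 50% or more versus controls, with final raw signal at or below 3038400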;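 note: plate controls were neutral control wells for no effect and wells lacking membranes for full effect; tested at 10 µM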
Target sequence (Q03530 whole entry, looked up): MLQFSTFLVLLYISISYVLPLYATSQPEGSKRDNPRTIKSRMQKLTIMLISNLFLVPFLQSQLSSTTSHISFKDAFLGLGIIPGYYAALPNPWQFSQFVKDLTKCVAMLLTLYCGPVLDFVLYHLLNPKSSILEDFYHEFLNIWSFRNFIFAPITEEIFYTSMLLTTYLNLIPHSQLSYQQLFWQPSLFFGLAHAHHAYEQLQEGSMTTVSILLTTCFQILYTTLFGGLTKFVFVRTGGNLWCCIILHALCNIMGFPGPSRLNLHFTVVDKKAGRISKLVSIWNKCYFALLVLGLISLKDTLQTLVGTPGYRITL
HIV Env fusion = blocks HIV Env-driven cell-cell fusion. HeLa-JRFL Env/CEM21 cell fusion, luciferase. 360,000 compounds, 1.1% hits. inhibition, % at 12.3 µM;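 active = mean replicate inhibition score of at least 50 and every replicate individually at or above 50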;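 note: 0% = plate neutral controls and 100% = maraviroc near 300 nM; one replicate is shown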
MT1-MMP act inh RFP = second read-out of MT1-MMP act inh, no call of its own (marks repeat the call); RFP signal change, %; measured here: RFP expression control read;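 0 = vehicle wells; hits needed this value within 50% of zero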
Active calls of the source: *; i = inactive; nt = no result given. This is a subset, so the mix of outcomes need not match the whole.

SMILES | eIF4H FP inh | PABP FP inh | MT1-MMP act inh | MT1-MMP act inh RFP | CSC inhib | UUG fidelity | Rce1 inhib | HIV Env fusion
Cc1ccc(CN2CC(C(=O)Nc3nnc(SCc4c(Cl)cccc4Cl)s3)CC2=O)cc1 (stereo not given) | 22 | 13 | 3 | 1 | -2 | nt | i | 2
CC(C)COP(=O)(c1ccc(N(C)C)cc1)C(O)c1ccc(N(C)C)cc1 (stereo not given) | -1 | 0 | 3 | 5 | 0 | -20 | i | -5
COc1ccc(C2N3CC4(C)CN2CC(C)(C3)C4O)cc1OC (stereo not given) | 9 | 2 | 6 | 3 | -15 | -10 | i | -214
CCCNC(=O)[C@H](C)NC(=O)c1ccc(Br)cc1 | -6 | -4 | 4 | 8 | -1 | -17 | i | -2
COC(=O)c1ccc(NC(=O)CCCN2C(=O)NC(C)(C)C2=O)cc1 | nt | nt | -1 | -1 | nt | -9 | nt | -10
CCN(C(=O)COC(=O)CNS(=O)(=O)c1ccc(SC)c([N+](=O)[O-])c1)C1CCCCC1 | nt | nt | 0 | 6 | -1 | 9 | i | -6
O=C(CN1CCN(CC(=O)Nc2ccccc2Cl)CC1)Nc1ccc2c(c1)OCCO2 | -8 | -11 | -6 | -7 | -2 | -11 | i | nt
COc1cc(C(=O)OCC(C)=O)ccc1OCc1c(C)noc1C | 2 | 4 | 1 | -10 | nt | nt | i | 16
Cc1cccc(NC(=O)C2CCN(S(=O)(=O)c3cccc4nsnc34)CC2)n1 | 0 | -7 | -2 | -5 | -16 | 10 | i | 16
CC(=O)Oc1c(C(C)C)cc(N(C(C)=O)c2ccccc2)cc1C(C)C | nt | nt | -37 | -26 | 1 | nt | i | 4
Cc1cccc(C(=O)NCC(=O)OCC(=O)N(C)CC(=O)Nc2ccc(F)cc2)c1 | nt | nt | -3 | 1 | 1 | -4 | i | -7
O=C1CCNCCN1[C@H](CO)Cc1ccccc1 | 2 | -9 | 0 | 5 | 5 | -15 | i | 18
CN(C)S(=O)(=O)c1cccc(NC(=O)CN2C(=O)NC3(CCc4ccccc4C3)C2=O)c1 (stereo not given) | -1 | 2 | 2 | 2 | 2 | -5 | i | -4
Cc1ccc(C)c(OCc2cc(C(=O)N(C)Cc3ccccn3)no2)c1 | -2 | -3 | -4 | -5 | 1 | -4 | i | -5
CCOC(=O)c1ccc(COC(=O)CNC(=O)CNC(=O)Cc2ccccc2)cc1 | -16 | -5 | 2 | 4 | -23 | -3 | i | 7
Cc1ccc(-n2ncc3c(=O)n(-c4ccc(C)c(C)c4)c(-c4ccco4)nc32)cc1 | -20 | -15 | -11 | -7 | nt | -1 | i | -95
CC(=O)c1ccc(OCCOc2ccc(Cl)c3cccnc23)cc1 | -8 | -2 | -4 | 2 | -18 | nt | i | -7
CCc1nc2sc(C(C)=O)c(N)c2c2c1CCCC2 | 4 | 3 | -7 | -7 | 4 | 18 | i | 24
CCC1(CC)SCCNC1=O | nt | nt | -2 | -1 | nt | -14 | nt | 15
Cc1cc(C)cc(NC(=O)c2cc(C)n(Cc3cccs3)c2C)c1 | -3 | 5 | 0 | 6 | 6 | -6 | i | -36
Oc1[nH]c2ccccc2c1N=Nc1ncnc2c1oc1ccccc12 | 20 | 6 | nt | nt | -4 | nt | i | -14
Cc1c(O)c(S(=O)c2ccccc2)c(=O)n(-c2ccccc2)c1-c1ccccc1 (stereo not given) | 6 | 7 | 0 | 5 | -5 | nt | i | nt
COc1ccc(CCNC(=O)CCN2C(=O)C(C)Oc3ccc(C)cc32)cc1OC (stereo not given) | -6 | -4 | 5 | 3 | -5 | 8 | i | -16
Cc1cccc(NC(=O)Cn2nnc(C(=O)NCc3cccs3)c2N)c1C | -22 | -18 | 4 | 0 | 1 | -11 | i | -43
CNCc1ccccc1OCc1ccc(F)cc1 | -3 | 3 | -2 | 2 | nt | nt | i | -16

Another view of part of the listing above.
SMILES	eIF4H FP inh	PABP FP inh	MT1-MMP act inh	MT1-MMP act inh RFP	CSC inhib	UUG fidelity	Rce1 inhib	HIV Env fusion
Cc1ccc(CN2CC(C(=O)Nc3nnc(SCc4c(Cl)cccc4Cl)s3)CC2=O)cc1 (stereo not given)	22	13	3	1	-2	nt	i	2
CC(C)COP(=O)(c1ccc(N(C)C)cc1)C(O)c1ccc(N(C)C)cc1 (stereo not given)	-1	0	3	5	0	-20	i	-5
COc1ccc(C2N3CC4(C)CN2CC(C)(C3)C4O)cc1OC (stereo not given)	9	2	6	3	-15	-10	i	-214
CCCNC(=O)[C@H](C)NC(=O)c1ccc(Br)cc1	-6	-4	4	8	-1	-17	i	-2
COC(=O)c1ccc(NC(=O)CCCN2C(=O)NC(C)(C)C2=O)cc1	nt	nt	-1	-1	nt	-9	nt	-10
CCN(C(=O)COC(=O)CNS(=O)(=O)c1ccc(SC)c([N+](=O)[O-])c1)C1CCCCC1	nt	nt	0	6	-1	9	i	-6
O=C(CN1CCN(CC(=O)Nc2ccccc2Cl)CC1)Nc1ccc2c(c1)OCCO2	-8	-11	-6	-7	-2	-11	i	nt
COc1cc(C(=O)OCC(C)=O)ccc1OCc1c(C)noc1C	2	4	1	-10	nt	nt	i	16
Cc1cccc(NC(=O)C2CCN(S(=O)(=O)c3cccc4nsnc34)CC2)n1	0	-7	-2	-5	-16	10	i	16
CC(=O)Oc1c(C(C)C)cc(N(C(C)=O)c2ccccc2)cc1C(C)C	nt	nt	-37	-26	1	nt	i	4
Cc1cccc(C(=O)NCC(=O)OCC(=O)N(C)CC(=O)Nc2ccc(F)cc2)c1	nt	nt	-3	1	1	-4	i	-7
O=C1CCNCCN1[C@H](CO)Cc1ccccc1	2	-9	0	5	5	-15	i	18

Continuation:
SMILES | eIF4H FP inh | PABP FP inh | MT1-MMP act inh | MT1-MMP act inh RFP | CSC inhib | UUG fidelity | Rce1 inhib | HIV Env fusion
Cc1ccc(S(=O)(=O)N2CCCCC2)cc1C(=O)OCC(=O)NC(=O)NC12CC3CC(CC(C3)C1)C2 | 3 | 6 | 3 | 2 | nt | -18 | i | 22
CCCS(=O)(=O)N1CCC(C(=O)NCCCN(C)Cc2ccccc2)CC1 | -6 | -10 | 2 | 6 | -18 | nt | i | nt
O=C(Nc1cccc(S(=O)(=O)N2CCCC2)c1)c1ccc2c(c1)OCO2 | -1 | -6 | 2 | -5 | 10 | nt | i | nt
COC(=O)C1C(=O)C2=C(CC1C)NC(C)=C(C(=O)OC(C)C)C2c1ccc(OC)c(O)c1 (stereo not given) | -12 | 0 | -3 | 0 | -7 | 9 | i | -88
COc1ccc(-c2cc(CNc3nc(NCc4ccccc4OC)nc4ccsc34)on2)cc1 | nt | nt | -12 | -17 | nt | -12 | nt | 9
CSc1ccccc1NC(=O)CCn1c(=O)oc2ccccc21 | -14 | -5 | -3 | 4 | 5 | -9 | i | 9
CCN(CC)c1nc(SCC(=O)O)nc(N(CC)CC)n1 | -11 | -6 | -2 | -2 | -2 | 2 | nt | -59
Cc1onc(-c2ccccc2)c1C(=O)O/N=C(\N)c1ccc([N+](=O)[O-])o1 | -5 | 6 | 0 | 2 | 17 | nt | i | 0
COc1ccc(/C=N/NC(=O)c2ccc[nH]2)cc1 | -6 | -6 | 2 | -1 | nt | -22 | i | -43
CCCS(=O)(=O)NC(=O)C1(C)CCCN(C(=O)c2cccs2)C1 (stereo not given) | nt | nt | 1 | 1 | nt | -8 | nt | -5
COc1ccc(S(=O)(=O)N2CCC(C(=O)Nc3cccc(Cl)c3)CC2)cc1OC | -6 | -1 | 4 | -4 | -1 | -2 | i | nt
COc1cccc(NC(=O)c2cccs2)c1 | -6 | 8 | 0 | 4 | 4 | 8 | i | nt
CC(C)CN1CCN(Cc2ccc(C#CC(C)(C)O)cc2)CC1CCO (stereo not given) | -6 | -8 | 0 | 4 | -4 | 1 | i | -5
CN1C(=O)S/C(=C\c2ccccc2OCc2ccc(C(=O)O)cc2)C1=O | 4 | 9 | 0 | -1 | -3 | nt | i | 11
Cc1cc(C)n2cc(COc3ccccc3)nc2n1 | 2 | 5 | -2 | 3 | -10 | nt | i | 7
COc1ccccc1N1CCN(C(=O)c2oc3cc(C)cc(C)c3c2C)CC1 | 9 | -3 | -4 | -4 | 54 | -7 | i | 4
Cc1ccc(NC(=O)C2CCN(S(=O)(=O)c3ccc4c(c3)NC(=O)C(C)S4)CC2)c(C)c1 (stereo not given) | -13 | 6 | -1 | -18 | -5 | 2 | i | -3
COc1cccc(C2NC(=O)c3ccccc3O2)c1OC (stereo not given) | -9 | -9 | -8 | -7 | -9 | -9 | i | -77
CN(C)S(=O)(=O)c1cc(NC(=O)CN2CCN(c3ccccc3)CC2)ccc1Cl | -5 | -11 | 2 | -2 | 11 | nt | i | nt
Cc1ccc(C(=O)C(C)OC(=O)CN2C(=O)NC3(CCCC3)C2=O)cc1C (stereo not given) | nt | nt | 0 | -1 | -3 | 9 | i | 2
COc1ccc([C@@H]2[C@@H]3C(=O)N(C(C)(C)C)C(=O)[C@@H]3[C@]3(Cc4ccccc4)C(=O)N(c4cccc(Br)c4)C(=O)N23)cc1 | nt | nt | -1 | -3 | -10 | 0 | i | 33
COc1cc(/C=C/c2noc(-c3ccccc3O)n2)ccc1OC(C)=O | 3 | 0 | 0 | 3 | 103* | nt | i | -240
S=C(c1ccc(-c2ccc(Cl)c(Cl)c2)o1)N1CCOCC1 | 9 | -5 | -3 | 1 | 23 | -25 | i | nt
COc1cc(OC)cc(-c2nc3ccccc3c(=O)o2)c1 | -2 | 8 | 4 | -3 | -14 | -17 | i | nt
CCN1CCN(S(=O)(=O)c2ccc(Cl)c(C(=O)Nc3nnc(C)s3)c2)CC1 | nt | nt | 2 | 2 | 0 | -4 | i | -24

Other records follow.
SMILES | eIF4H FP inh | PABP FP inh | MT1-MMP act inh | MT1-MMP act inh RFP | CSC inhib | UUG fidelity | Rce1 inhib | HIV Env fusion
O=C(NOCc1ccccc1)OCc1ccccc1 | nt | nt | 3 | 5 | nt | -5 | nt | -35
CCn1c(SCC(=O)Nc2nc(-c3ccccc3)cs2)nnc1-c1ccccc1O | 2 | 3 | -4 | -26 | 21 | -12 | nt | nt
Cc1nnc(SC(C)C#N)n1-c1ccccc1 (stereo not given) | 5 | -4 | -1 | 6 | -3 | nt | i | -4
COCCn1nnnc1C(C(C)C)N(Cc1cccnc1)Cc1ccccc1Cl (stereo not given) | -8 | 14 | -4 | 1 | 7 | -22 | i | nt
CCCC[C@@H]1C=C(C(=O)O)[C@H](c2ccc(Br)cc2)N1S(=O)(=O)c1ccc(C)cc1 | nt | nt | 5 | 1 | nt | 6 | nt | 34
COc1ccc2c(Cl)c(C(=O)NCCCn3ccnc3)sc2c1 | 0 | -11 | 10 | -4 | 46 | -23 | i | nt
Cc1cccc(C)c1NC(=O)COc1ccccc1C(=O)Nc1ccc(Br)cn1 | -7 | 8 | 3 | 3 | -3 | -8 | i | 3
CCN(C(=O)c1ccco1)c1nc(CC(=O)Nc2ccc(Cl)cc2)cs1 | -8 | 7 | 4 | -4 | -1 | -21 | nt | nt
CCn1c(Cc2ccccc2)nnc1SCC(=O)Nc1ccc(S(N)(=O)=O)cc1 | 3 | -9 | 7 | 1 | -2 | -25 | i | 36
Cc1ccc(COc2ccc(/C=N/NC(=O)c3nnn(-c4nonc4N)c3COc3ccc(F)cc3)cc2)cc1 | -4 | -1 | 1 | -2 | 12 | -15 | i | -7
CCOC(=O)C(NC(=O)CC)(Nc1nc2c(s1)CCCC2)C(F)(F)F (stereo not given) | -2 | 2 | -3 | 0 | -15 | 3 | i | -16
O=C(NCc1cccs1)c1ccc2sc([C@@H]3O[C@H](CO)[C@H](O)[C@H](O)[C@H]3O)nc2c1 | nt | nt | -4 | 6 | nt | -13 | nt | 10

High-throughput results as filed in PubChem.
